EPAC1 agonist = validation of human EPAC1 agonists; O95398; EPAC1 Rap1b BODIPY-GDP exchange, fluorescence; Potency, µM, for inactives: max response, positive = active, most hits filed as activators; 16,000 compounds, 1% hits; AID 1645883; active = well fitted activation curve with a large enough effect; inconclusive = small, poorly fitted or top-dose-only effect; inactive = no such curve, though single readings can be large or run the other way;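 also: nearly all actives have a fitted effect of over 70% in size; series mostly up to about 76 or 150 µM; scaled to a cAMP control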
Target sequence (O95398 whole entry, looked up): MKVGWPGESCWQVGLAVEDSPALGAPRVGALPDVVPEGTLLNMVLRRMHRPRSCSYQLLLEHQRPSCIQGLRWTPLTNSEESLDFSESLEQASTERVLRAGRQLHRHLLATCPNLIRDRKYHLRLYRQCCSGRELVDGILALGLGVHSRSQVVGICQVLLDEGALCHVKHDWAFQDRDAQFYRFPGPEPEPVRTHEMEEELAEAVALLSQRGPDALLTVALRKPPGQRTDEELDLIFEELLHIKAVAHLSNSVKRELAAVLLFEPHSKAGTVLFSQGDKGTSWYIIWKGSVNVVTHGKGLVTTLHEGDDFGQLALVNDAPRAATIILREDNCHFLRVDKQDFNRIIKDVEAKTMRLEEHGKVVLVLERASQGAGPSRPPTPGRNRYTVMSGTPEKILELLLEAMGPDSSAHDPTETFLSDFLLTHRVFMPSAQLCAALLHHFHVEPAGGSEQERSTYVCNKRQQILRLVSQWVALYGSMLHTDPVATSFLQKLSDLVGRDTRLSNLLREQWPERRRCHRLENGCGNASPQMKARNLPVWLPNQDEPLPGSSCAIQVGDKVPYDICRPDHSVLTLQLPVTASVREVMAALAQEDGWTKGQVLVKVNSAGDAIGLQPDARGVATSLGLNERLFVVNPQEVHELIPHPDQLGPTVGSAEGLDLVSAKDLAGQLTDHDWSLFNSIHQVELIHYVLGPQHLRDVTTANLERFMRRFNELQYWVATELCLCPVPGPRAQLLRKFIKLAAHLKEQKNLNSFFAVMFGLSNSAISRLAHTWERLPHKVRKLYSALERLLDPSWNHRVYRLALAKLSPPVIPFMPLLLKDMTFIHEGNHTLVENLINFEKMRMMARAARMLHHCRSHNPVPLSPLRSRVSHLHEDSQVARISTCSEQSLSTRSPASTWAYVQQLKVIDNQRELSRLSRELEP
Starred values were filed as active, the others as inactive; ? = inconclusive; & = joins results of further samples; [ ] = another dose, or the depositor's remark. % is scaled to controls: 0 for no effect and ±100 for the full control effect; potency is read from the fitted curve at half-maximal effect. Only part of the results is shown; the hit share may differ from the screen's.

SMILES	EPAC1 agonist
CO[C@@H]1[C@@H](O[C@@H]2O[C@H](C)[C@@H](O[C@H]3C[C@@](C)(O)[C@@H](O)[C@H](C)O3)[C@H](N(C)C)[C@H]2O)[C@@H](CC=O)C[C@@H](C)[C@@H](O[C@@H]2CC[C@H](N(C)C)[C@@H](C)O2)/C=C/C=C/C[C@@H](C)OC(=O)C[C@H]1OC(C)=O	10%
COc1ccc(-n2c(=O)cnc3cnc(Nc4ccccc4)nc32)cc1	-53%[inhibitor]
CC(C)CCCC(C)C1CCC2C3C(=O)C=C4CC(O)CC[C@@]4(C)C3CC[C@@]12C (some centres not stated)	-99%[inhibitor]
O=C(NCc1nnc2n1CCN(Cc1cc3c(cc1Cl)OCO3)CC2)C1CCOC1 (configuration not stated)	3%
COc1ccc(-n2c(=O)c(CCc3ccccc3)nc3cnc(N(C)C)nc32)cc1	?
O=C1CCN(CCc2ccccc2)CCN1[C@H](CO)c1ccccc1	10%
CC1=C(/C=C/C(C)=C/C=C/C(C)=C/C(=O)Oc2c(C)c(C)c3c(c2C)CC[C@@](C)(CCC[C@H](C)CCC[C@H](C)CCCC(C)C)O3)C(C)(C)CCC1	-33%[inhibitor]
CN(N=O)C(=O)N[C@H]1C(O)OC(CO)[C@@H](O)[C@H]1O (some centres not stated)	6%
Cc1cc(=O)oc2cc(O[C@@H]3O[C@H](C(=O)O)[C@@H](O)[C@H](O)[C@H]3O)ccc12	-12%
COc1cc(/C=C/C(=O)O)ccc1O	?
COCC(=O)N1CCC[C@@]2(CCN(Cc3ccccc3OC)C2)C1	1%
CN(C)c1ncc2nc(CCc3ccccc3)c(=O)n(CCC#N)c2n1	-27%
C=C1C(=C/C=C2\CCC[C@]3(C)[C@@H]([C@H](C)/C=C/[C@@H](O)C4CC4)CC[C@@H]23)C[C@@H](O)C[C@@H]1O	16%
CN(Cc1ccco1)C(=O)c1cc(NC(=O)C2CCC2)c2c(c1)nc(-c1ccncc1)n2C	17%
C#C[C@]1(O)CC[C@H]2[C@@H]3CCC4=C/C(=N/O)CC[C@@H]4[C@H]3CC[C@@]21CC	11%
CC(CN1c2ccccc2Sc2ccccc21)N(C)C (configuration not stated)	?
O=C(NCC1Cc2cc(F)cc(-c3cccnc3)c2O1)c1cnn(-c2ccccc2)c1 (configuration not stated)	6%
O=S1(=O)CCOCCCN1Cc1ccccc1F	-6%
COc1ccccc1-c1ccnc(-n2ncc(C(=O)N(C)C(C)c3nc(C)cs3)c2C2CC2)n1 (configuration not stated)	-10%
COC(=O)CC1C2(C)CC34OC5(C)O[C@@]6(C7/C(=C(/OC)C(C)C)C(=O)OC(c8ccoc8)[C@@]7(C)C(OC(=O)C(C)C)C(OC)[C@]6(O5)[C@@]13C)C(OC)[C@]4(OC)C2OC(C)=O (some centres not stated)	-85%[inhibitor]
Cc1cc(C)c(CN2CCC3(CCC(CNC(=O)c4ccn(C)n4)O3)CC2)cc1C (configuration not stated)	6%
Cc1noc(C)c1-c1nc(N2CCN(C)CC2)c2ccccc2n1	-22%
COC1=CC(=O)C[C@@H](C)[C@]12Oc1c(Cl)c(OC)cc(OC)c1C2=O	12%&-5%
CC(NC(=O)c1ccco1)c1nnc2n1CCN(Cc1ccc(N(C)C)cc1)CC2 (configuration not stated)	8%
CC(=O)Oc1cccc(C)c1	3%
SMILES	EPAC1 agonist
N#Cc1cccc(-c2cc(NCc3cccs3)ncn2)c1	-38%[inhibitor]
CNC(=O)Oc1ccc2c(c1)[C@@]1(C)CCN(C)C1N2C (some centres not stated)	?
CC1=C(\C=C/C(C)=C/C=C\C(C)=C\C(=O)O)C(C)(C)CCC1	-6%&-20%&3%
Cc1cn([C@H]2C[C@H](N=[N+]=[N-])[C@@H](CO)O2)c(=O)[nH]c1=O	5%&-9%&-10%
O=C(c1ccncc1)N1CCC2(CCCN(Cc3ccccc3)C2)CC1	1%
CCn1cc(C(=O)O)c(=O)c2cc(F)c(N3CCNCC3)cc21	?
CC(C)c1ccc(CN2CCC3(CCC(CNC(=O)c4ccn(C)n4)O3)CC2)cc1 (configuration not stated)	-13%
O=C1NC(=O)c2cc(Nc3ccccc3)c(Nc3ccccc3)cc21	6%
COCC(=O)Nc1cc(C(=O)N2CCN(C3CCCC3)C(=O)C2)c2c(c1)nc(-c1ccncc1)n2C	-3%
COc1cc(O)c(C)c(O)c1	-23%
COc1ccccc1C(=O)N[C@@H]1c2ccccc2C2(CCN(Cc3nccs3)CC2)[C@H]1OC	-5%
CCN1CCC(N[C@H]2C[C@@H](C(=O)NC)N(Cc3cccc4ccccc34)C2)CC1	-5%
COc1ccc(CNc2cc(-c3cccc(NS(C)(=O)=O)c3)ncn2)c(OC)c1	0%
O=C(Oc1ccccc1)N1CCC2(CC1)CN(c1ncccn1)C2	15%
O=C(O)[C@H]1CN[C@H](C(=O)O)C1	8%
O=c1c(CCc2ccccc2)nc2cnc(N3CCOCC3)nc2n1Cc1cccs1	-1%
Cc1onc(-c2c(F)cccc2Cl)c1C(=O)N[C@@H]1C(=O)N2[C@@H]1SC(C)(C)[C@@H]2C(=O)O	12%&10%
CC(=O)Nc1ccccc1-c1nc(CNC(=O)c2ccc(-n3cccn3)cc2)c(C)o1	-4%
Cc1cc(S(=O)(=O)NCc2nc(N3CCCC3)c3cc(Cl)ccc3n2)c(C)s1	-1%
CCCCCCCCN1[C@@H](CC(=O)O)c2ccc(/C=C/C(=O)O)cc2S1(=O)=O	?
CC1(C)OC2CC3C4CCC5=CC(=O)CCC5(C)C4(F)C(O)CC3(C)[C@]2(C(=O)CCl)O1 (some centres not stated)	-19%
O=C(/C=C/c1ccc(OCc2ccccc2)cc1)c1cccs1	18%
COc1ncc2ncc(=O)n(C3CC3)c2n1	?
COc1ccc(CCC(=O)c2c(O)cc(OC3OC(CO)C(O)C(O)C3O[C@@H]3OC(C)C(O)C(O)C3O)cc2O)cc1O (some centres not stated)	29%
Cc1c(C(=O)NCCCc2ccncc2)cnn1-c1ncc2c(n1)-c1ccccc1CC2	6%
SMILES	EPAC1 agonist
Cc1cc(C(=O)Nc2ccccc2-c2nc(CNC(=O)C3COc4ccccc4O3)c(C)o2)c(C)o1 (configuration not stated)	0%
Cn1cnc2c(NCc3ccccc3)nc(NCCO)nc21	-4%&-2%&-14%&0%
COC(=O)C1CCCCN1Cc1ccc2c(c1)CN(Cc1cnn(-c3ccccc3)c1)CCO2 (configuration not stated)	-6%
Oc1cc(-c2nc3ccccc3s2)cc2c1OCCN(Cc1cccn1-c1ncccn1)C2	-4%
CCCCCCCCCCCCN1C/C(=C\C(=O)OCC)c2ccccc2S1(=O)=O	-127%[inhibitor]
CCC(Cc1c(I)cc(I)c(O)c1I)C(=O)O (configuration not stated)	-1%
c1ccc(-c2ccc(N3CCCC4(CCNCC4)C3)cc2)cc1	-33%
O=C(c1cnccn1)N1CCC2(CC1)CN(C(c1ccccc1)c1ccccc1)C2	13%
Cc1ccn(CCC(=O)NCC2Cc3cc(Cl)cc(-c4ccc5[nH]ccc5c4)c3O2)n1 (configuration not stated)	12%
CC(C)C(N)C(=O)O (configuration not stated)	-8%
COC(=O)/C=C/c1cc(F)ccc1S(=O)(=O)Nc1ccccc1	20%
C[C@]12CCC(=O)C=C1C=C[C@@H]1[C@@H]2CC[C@@]2(C)[C@H]1CC[C@@]21CCC(=O)O1	20%
CC(C)(C)[C@H]1CCC(=O)N([C@H](CSc2ccc(Br)cc2)Cc2ccccc2)CC1	?
C=C[C@@]1(C)CC(=O)[C@@]2(O)[C@@]3(C)[C@@H](O)CCC(C)(C)[C@@H]3[C@H](O)[C@H](OC(C)=O)[C@@]2(C)O1	7%
CCCCCCCCCCCCCCCCCCOP(=O)([O-])OC1CC[N+](C)(C)CC1	-2%
COc1cccc(Cn2c(=O)c(-c3cccc(C#N)c3)nc3cnc(N4CCOCC4)nc32)c1	16%
O=C(c1ccncc1)N1CCC[C@@]2(CCN(Cc3ccccc3)C2)C1	21%
CN1CCCC1CCO[C@@](C)(c1ccccc1)c1ccc(Cl)cc1 (some centres not stated)	14%
CC(C)C[C@H](NC(=O)[C@@H](Cc1c[nH]c2ccccc12)NC(=O)[C@H](Cc1ccc(O)cc1)NC(=O)[C@H](CO)NC(=O)[C@H](Cc1c[nH]c2ccccc12)NC(=O)[C@H](Cc1cnc[nH]1)NC(=O)[C@@H]1CCC(=O)N1)C(=O)N[C@@H](CCCN=C(N)N)C(=O)N1CCC[C@@H]1C(=O)NCC(N)=O	-55%[inhibitor]
COc1ccc(-c2coc3c(OC)c(OC)cc(OC)c3c2=O)cc1	-72%[inhibitor]
COC(=O)CC[C@@H](C)[C@H]1CC[C@H]2[C@@H]3CC[C@@H]4C[C@H](O)CC[C@]4(C)[C@H]3C[C@H](O)[C@]12C	10%
Cc1ccc2nc(SCC(=O)N3CCC4(CC3)CC4C(=O)Nc3ccc(F)c(F)c3)[nH]c2c1 (configuration not stated)	?
COc1ccc(-n2c(=O)c(C)nc3cncnc32)cc1	3%
N#CCCn1c(=O)cnc2cnc(Oc3ccccc3)nc21	-35%
CN(C)C(=O)c1ccc(-c2cncnc2N(C)Cc2ccco2)cc1	0%

Structural class: the entries above with a furan ring, fused or not.
SMILES	EPAC1 agonist
CN(Cc1ccco1)C(=O)c1cc(NC(=O)C2CCC2)c2c(c1)nc(-c1ccncc1)n2C	17%
COC(=O)CC1C2(C)CC34OC5(C)O[C@@]6(C7/C(=C(/OC)C(C)C)C(=O)OC(c8ccoc8)[C@@]7(C)C(OC(=O)C(C)C)C(OC)[C@]6(O5)[C@@]13C)C(OC)[C@]4(OC)C2OC(C)=O (some centres not stated)	-85%[inhibitor]
CC(NC(=O)c1ccco1)c1nnc2n1CCN(Cc1ccc(N(C)C)cc1)CC2 (configuration not stated)	8%
Cc1cc(C(=O)Nc2ccccc2-c2nc(CNC(=O)C3COc4ccccc4O3)c(C)o2)c(C)o1 (configuration not stated)	0%
CN(C)C(=O)c1ccc(-c2cncnc2N(C)Cc2ccco2)cc1	0%

Following part
SMILES	EPAC1 agonist
CC(N)(C(=O)O)c1ccc(-c2nn[nH]n2)cc1 (configuration not stated)	-12%
NC(Cc1ccc(Cl)cc1)C(=O)O (configuration not stated)	?
O=c1c(-c2ccc(F)cc2)nc2cnc(N3CCOCC3)nc2n1C[C@H]1CCCO1	-59%[inhibitor]
COc1ccccc1-c1nc(NCc2cnc(C)cn2)c2ccccc2n1	-33%[inhibitor]
FC1(F)C(F)(F)C(F)(F)C2(F)C(F)(F)C(F)(F)C(F)(F)C(F)(F)C2(F)C1(F)F (configuration not stated)	?
COc1ccc(C(=O)N2CCC3(CC2)CN(c2cccc(-c4ccccc4)c2)C3)cc1	112µM*
Cc1ccccc1-c1ccc2ncnc(N3CCN(C)CC3)c2c1	-31%[inhibitor]
Fc1ccc(N2CCN(Cc3ccc4c(c3)CN(Cc3cccn3-c3cccnc3)CCO4)CC2)cc1	0%
CCOC(=O)C1=C(C)NC(C)=C(C(=O)OCC)C1c1ccccc1C=CC(=O)OC(C)(C)C	-59%[inhibitor]
CC(C)NC(=O)N1CC2(CCN(C(=O)c3ccco3)CC2)C1	-1%
Cn1c(=O)c(-c2ccc(Cl)cc2)nc2cnc(OCc3ccccc3)nc21	-35%[inhibitor]
Cc1noc(C)c1C(=O)N1CCC[C@@]2(CCN(c3ccccn3)C2)C1	3%
CC1(C)O[C@@H]2[C@@H](CO[C@@]3(COS(N)(=O)=O)OC(C)(C)O[C@@H]23)O1	-23%
CC[C@@H]([C@H](C)O)n1ncn(-c2ccc(N3CCN(c4ccc(OCC5CO[C@@](Cn6cncn6)(c6ccc(F)cc6F)C5)cc4)CC3)cc2)c1=O (some centres not stated)	14%
O=C1OC(C(O)CO)C(O)=C1O (configuration not stated)	21%
C=CS(=O)(=O)O	11%
COC(=O)C1N2C(=O)N(C)[C@H](C(=O)OC)[C@H]2SC1(C)C (some centres not stated)	?
O=c1ccc2ccc(O[C@@H]3O[C@H](CO)[C@@H](O)[C@H](O)[C@H]3O)c(O)c2o1	-23%
COc1cc(O)c2c(c1)C(=O)c1cc(C)cc(O)c1C2=O	18%
COc1ccc(CNc2ncncc2-c2ccccc2C)c(OC)c1	-35%[inhibitor]
COc1ccccc1CCNCc1cc2cccc(C)c2nc1-c1cccs1	5%
NC(=O)Cc1cccc(C(=O)c2ccccc2)c1N	5%
C1=C/C(=C2/C=Cc3ccccc32)c2ccccc2N1	?
O=S1(=O)CCOC[C@H](c2ccccc2)N1Cc1cccc(F)c1	-9%
COc1ccc(-n2c(CNC(=O)c3cccc(OC)c3OC)nnc2SC)cc1	-7%
SMILES	EPAC1 agonist
c1ccc(Nc2ncncc2-c2ccoc2)cc1	-3%
Cn1c2ccccc2c2cc(C(=O)N3CCOc4ccc(C(C)(O)CCn5cccn5)cc4C3)ccc21 (configuration not stated)	-10%
CCOC(=O)/C=C/c1ccc2c(c1)S(=O)(=O)N(Cc1ccc(OC)cc1)[C@H]2CC(=O)OCC	19%
C1CCN2C[C@@H]3C[C@@H](CN4CCCC[C@@H]34)[C@H]2C1	-11%&-16%
COc1cccc(-c2cc(N(C)Cc3ccco3)ncn2)c1	27%
Clc1ccccc1-c1nc(N2CCNCC2)c2ccccc2n1	?
CCOC(=O)C[C@H]1c2cc(F)ccc2S(=O)(=O)N1C1CCCCC1	0%
COc1ccc(CNc2ccnc(-c3ccccc3C(F)(F)F)n2)c(OC)c1	?
CC(=O)NCc1c(I)c(NC(C)=O)c(I)c(C(=O)O)c1I	-7%

3 of the compounds above, in markdown:
| compound | EPAC1 agonist |
| --- | --- |
| CCOC(=O)/C=C/c1ccc2c(c1)S(=O)(=O)N(Cc1ccc(OC)cc1)[C@H]2CC(=O)OCC | 19% |
| C1CCN2C[C@@H]3C[C@@H](CN4CCCC[C@@H]34)[C@H]2C1 | -11%&-16% |
| COc1cccc(-c2cc(N(C)Cc3ccco3)ncn2)c1 | 27% |

Compound activity deposited in PubChem BioAssay by National Center for Advancing Translational Sciences (NCATS).
